Bioassay records from PubChem BioAssay.
Cruzain Triton: cruzain (T. cruzi) inhibition with detergent; P25779; purified cruzain, Z-FR-AMC fluorescence, 0.01% Triton; Potency, µM, inactives show max response, negative = inhibition, actives largely listed as inhibitors; 200,000 tested, 0.43% active; AID 1478; active = well fitted curve in the direction sought with a large enough effect; inconclusive = small, poorly fitted or top-dose-only effect, or another doubt; inactive = no such curve, though single readings can be large; an effect the other way counts as inactive or inconclusive;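 also: plate controls were neutral wells for no effect and buffer without enzyme for full effect; nearly all actives have a fitted effect of over 40% in size; top concentration of the series not given in the record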
Target sequence (P25779 123-467 limits assumed): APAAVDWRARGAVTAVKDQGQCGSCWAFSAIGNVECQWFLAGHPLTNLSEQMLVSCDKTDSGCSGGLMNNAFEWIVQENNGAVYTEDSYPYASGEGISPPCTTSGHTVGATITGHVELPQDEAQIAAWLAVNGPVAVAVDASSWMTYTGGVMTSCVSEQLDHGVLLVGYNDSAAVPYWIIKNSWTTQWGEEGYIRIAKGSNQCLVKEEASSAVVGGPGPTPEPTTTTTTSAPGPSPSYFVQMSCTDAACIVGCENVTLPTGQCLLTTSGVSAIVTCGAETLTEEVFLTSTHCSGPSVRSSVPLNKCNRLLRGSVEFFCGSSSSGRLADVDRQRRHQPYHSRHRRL
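Z-FR-AMC hydrolysis (2 uM substrate) by cruzain (1.5 nM) monitored kinetically at ex 360/em 450 nm after 15 min room-temperature compound exposure; 0.01% Triton X-100, pH 5.5, 5 mM DTT.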
Cruzain inh noDet: inhibitors of Trypanosoma cruzi cruzain without detergent. 200,000 tested, 2.3% active. P25779. purified cruzain, Z-FR-AMC fluorescence, no detergent. Potency, µM, for inactives: max response, negative = inhibition, usual class: inhibitors; active = well fitted curve in the direction sought with a large enough effect; inconclusive = small, poorly fitted or top-dose-only effect, or another doubt; inactive = no such curve, though single readings can be large; an effect the other way counts as inactive or inconclusive;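 also: plate controls were enzyme without inhibitor for no effect and buffer without enzyme for full effect; nearly all actives have a fitted effect of over 40% in size; top concentration of the series not given in the record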
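Purified cruzain at 1.5 nM, pre-incubated 15 min with compound at room temperature in 100 mM sodium acetate pH 5.5, 5 mM DTT, 0.00005% Triton X-100. Reaction started with 2 uM Z-FR-AMC; AMC fluorescence increase over 60 s gives rate.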
NS1 inh: blocks influenza NS1 protein function. S. cerevisiae slowed by influenza A NS1, growth recovery by OD600. Potency, µM (doses to about 46.1 µM), for inactives: at the highest dose activity, positive = more growth. 270,000 tested, 0.4% active; also: actives are rising curves; nearly all actives have a fitted effect of over 50% in size
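In this qHTS, NS1 from influenza A is expressed in budding yeast, where it slows growth. Cells are switched from glucose to 2% galactose medium (pH 6.0, -URA), treated with compound, and growth recovery is read at OD600.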
SARS PLP yeast: blocks SARS-CoV papain-like protease in a yeast assay. 330,000 tested, 0.19% active. Potency, µM (doses to about 32.9 µM), for inactives: at the highest dose activity, positive = growth rescue. AID 485353. S. cerevisiae expressing SARS-CoV PLpro, growth rescue; control for the full effect not named in the record; also: 0% is about no effect; nearly all actives have a fitted effect of over 55% in size; growth read by luminescence after 48 h
LASV entry inh: Lassa virus entry inhibition. Lassa virus pseudotype entry inhibition, cell reporter; control for the full effect not named in the record. Potency, µM (highest dose often 37.9 µM), inactives show top-dose activity change, negative = inhibition, hits mostly inhibitors. 300,000 tested, 1.2% active. AID 540256; active means well fitted inhibition curve with a large enough effect; inconclusive means small, poorly fitted or top-dose-only effect, or effect the other way; inactive means flat fitted curve, though single readings scatter; tested in HEK293 cells; also: % is scaled to controls: 0 for no effect and ±100 for the full control effect; nearly all actives have a fitted effect of over 50% in size; luciferase read-out
RE007 growth inh: less growth of the S. pombe RE007 Vpr strain; S. pombe RE007 Vpr strain, BacTiter-Glo ATP luminescence, 24 h; control for the full effect not named in the record; Potency, µM (titrated, usually from 92.2 µM), without a hit: at the top dose activity change, negative = less growth; 360,000 tested, 0.21% active; AID 651644; active = well fitted falling curve with a large enough effect; inconclusive = small, poorly fitted or top-dose-only effect; inactive = no such curve, though single readings can be large or run the other way;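 also: % is scaled to controls: 0 for no effect and ±100 for the full control effect; nearly all actives have a fitted effect of over 50% in size; the assay follows cell death caused by Vpr and the record does not say whether a fall means rescue or toxicity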
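Fission yeast strain RE007, carrying one chromosomally integrated HIV-1 vpr copy, was seeded at OD 0.01 in PMG+AL medium with 23 nL pinned compound. After 24 h at 30 °C and 99% humidity, viability was read by BacTiter-Glo luminescence.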
Marburg entry inh: Marburg virus entry inhibition | Marburg virus pseudotyped entry inhibition, cell reporter; control for the full effect not named in the record; about a third of the inactives were read at about 46 µM | Potency, µM (top dose mostly 37.8 µM), inactives show at the highest dose activity change, negative = inhibition, usual class: inhibitors | AID 540276 | 300,000 tested, 1.8% active; active = well fitted inhibition curve with a large enough effect; inconclusive = small, poorly fitted or top-dose-only effect, or effect the other way; inactive = flat fitted curve, though single readings scatter; tested in HEK293 cells; about a fifth of its hits are not listed in these tables; also: % is scaled to controls: 0 for no effect and ±100 for the full control effect; luciferase read-out
2A StopGo: lowers the luciferase signal of an FMDV 2A StopGo reporter; human cells with a luciferase reporter of 2A StopGo recoding; control for the full effect not named in the record; Potency, µM (titrated, usually from 57.9 µM), without a hit: top-dose signal change, negative = less light; 410,000 tested, 1.2% active; AID 1159524; active = well fitted falling curve with a large enough effect; inconclusive = small, poorly fitted or top-dose-only effect; inactive = no such curve, though single readings can be large or run the other way; tested in HEK293T cells; also: % is scaled to controls: 0 for no effect and ±100 for the full control effect; nearly all actives have a fitted effect of over 45% in size; luciferase light after 4 h
* = called active by the depositor; ? = inconclusive; nt = not tested or not shown; & = joins results of further samples; [ ] = dose if it differs, or a comment. Unless noted, calls follow the shape of the dose curve; as a rule, active means well fitted rising curve with a large enough effect; inconclusive means small, poorly fitted or top-dose-only effect; inactive means no such curve, though single readings can be large or run the other way. Potency is read from the fitted curve at half-maximal effect. An unsorted share of the library, and some 4.8% of all compounds hit somewhere here.

Each structure is followed by: Cruzain Triton	Cruzain inh noDet	NS1 inh	SARS PLP yeast	LASV entry inh	RE007 growth inh	Marburg entry inh	2A StopGo
O=C(NCCc1ccccc1)C1CCCN1S(=O)(=O)c1cccc2nsnc12 (stereo not drawn)
→ nt	nt	-6%	-3%	nt	-22%	nt	-6%
COc1cc(C(=O)O)cc(NC(=O)c2ccco2)c1OC
→ nt	nt	3%	1%	11%	-10%	16%	0%
COc1ccc2c(c1)CC(C(=O)NCc1ccc(F)cc1)CO2 (stereo not drawn)
→ -2.2%	-5%	nt	nt	6%[46.1 µM]	nt	nt	-10%
O=C1N=C(N2CCN(c3ccccc3)CC2)S/C1=C\c1ccco1
→ nt	nt	10%	-5%	nt	8%	nt	1%
Cc1nnc(NC(=O)CSc2nnc(-c3ccoc3C)n2CC(C)C)s1
→ 1.6%	9%	-5%	6%	-2%	-13%	-14%[46.1 µM]	-8%
Cc1cc(C)n(-c2ccc(N3CCOCC3)nn2)n1
→ 7.4%	-4%	2%	1%	?	10%	12%	46%[activator]
CCn1c(=O)cc(OCC(=O)NC2CCCCC2)c2ccccc21
→ 6.0%	9%	-12%	4%	12%	24%	-24%	27%
COc1ccc(N=Cc2ccc[nH]2)cc1
→ 2.1%	0%	-48%	15%	16%	-5%	8%	10%
O=C(Oc1ccc(Cl)cc1N1C(=O)CCC1=O)c1ccco1
→ 7.6%	-3%	-5%	7%	5%	8%	18%	2%
CCCCSc1nnc(C)c(=O)[nH]1
→ 1.2%	-13%	0%	7%	20%	-19%	-2%	-2%
COc1ccccc1C(NC(=O)C1CCCCC1)c1c(O)ccc2ccccc12 (stereo not drawn)
→ 1.2%	10%	6%	-5%	5%	-2%	?	-11%
COc1ccc(C(=O)Cn2c3ccccc3n3nc(CCC(=O)O)c(=O)nc23)cc1OC
→ 1.3%	7%	10%	5%	-19%[14.3 µM]	10%	27%	1%
C=C[C@H](N)CCC(=O)O
→ 3.0%&-2.9%	-5%&-11%	nt	nt	nt	nt	?	8%
COc1ccc(S(=O)(=O)N2CCN(C(=O)c3cccc(Cl)c3)CC2)cc1
→ -1.6%	5%	-52%	-3%	0%	33%	2%	-22%
O=C(CSc1nc2ccccc2c(=O)n1NC(=O)Cc1ccccc1)NCc1ccccc1Cl
→ -4.0%	3%	7%	-5%	3%	10%	-4%	-7%
CN(Cc1ccccc1)C1CCNCC1
→ nt	nt	-4%	2%	-23%	-6%	-15%	-3%
Nc1cc(=O)[nH]c(SCCSc2cc(Cl)ccc2Cl)n1
→ nt	nt	5%	4%	-1%[46.1 µM]	6%	?	-14%
Cc1cc(C)cc(C(=O)NCC(=O)NCCc2c[nH]c3ccccc23)c1
→ nt	nt	4%	0%	-12%	-2%	13%[46.1 µM]	-19%
O=C(Nc1cccc(S(=O)(=O)N2CCOCC2)c1)c1cccc(S(=O)(=O)N2CCCCC2)c1
→ nt	nt	nt	-3%	-13%	3%	?	-17%
Cc1cccc(C(=O)Nc2cc(S(=O)(=O)N3CCOCC3)ccc2N2CCCC2)c1
→ nt	nt	nt	0%	-12%	-6%	13%	-1%

Two entries from above, with bars between the fields.
Compound | Cruzain Triton | Cruzain inh noDet | NS1 inh | SARS PLP yeast | LASV entry inh | RE007 growth inh | Marburg entry inh | 2A StopGo
CCn1c(=O)cc(OCC(=O)NC2CCCCC2)c2ccccc21 | 6.0% | 9% | -12% | 4% | 12% | 24% | -24% | 27%
Cc1cc(C)cc(C(=O)NCC(=O)NCCc2c[nH]c3ccccc23)c1 | nt | nt | 4% | 0% | -12% | -2% | 13%[46.1 µM] | -19%

The list continues:
Each structure is followed by: Cruzain Triton	Cruzain inh noDet	NS1 inh	SARS PLP yeast	LASV entry inh	RE007 growth inh	Marburg entry inh	2A StopGo
Cc1ccc2nc(N(Cc3cccnc3)C(=O)c3ccco3)sc2c1
→ 1.1%	?	nt	nt	15%[46.1 µM]	nt	nt	41%[activator]
CCOc1c(OC)cccc1C1CC(=O)Nc2cc(OC)c(OC)cc21 (stereo not drawn)
→ -4.8%	3%	?	-5%	nt	4%	nt	-16%
CCc1ccc2c(c1)cc(CN(C(=S)Nc1ccccc1Cl)C1CC1)c1nnnn12
→ -3.2%	-21%	7%	0%	?	-17%	-15%	13%
CN(C)c1ccc(P(=O)(OCc2ccccc2)C(O)c2ccc(Br)cc2)cc1 (stereo not drawn)
→ nt	nt	-3%	-1%	-28%[46.1 µM]	12%	0%[46.1 µM]	2%
C/C(=N\NC(=O)CCn1nc(C)cc1C)C(C)(C)C
→ 0.1%	10%	4%	-9%	-5%	1%	1%	11%
CCCCCCn1c(=O)c(-c2ccccc2)c(O)c2ccccc21
→ -12%	-11%	0%	-14%	3%	2%	0%	-8%
O=C(CSc1nc(-c2ccccc2)cs1)Nc1nccs1
→ 5.0%	25µM*	-25%	2%	-18%	21%	-14%	-15%
CC(OC(=O)c1ccc(Cl)c(S(=O)(=O)N2CCc3ccccc32)c1)C(=O)Nc1ncc(Cl)cc1Cl (stereo not drawn)
→ -4.5%	?	26%	?	13%	-12%	?	-3%
COc1cc(NC(=O)c2ccc(C)cc2C)ccc1NC(=O)c1cccs1
→ nt	nt	2%	-1%	20%	2%	10%[46.1 µM]	11%
COc1cc(C(=O)N/N=C/c2ccc(OC(=O)c3cccc(C)c3)cc2)ccc1O
→ nt	nt	15%	-1%	-7%	1%	-8%	35µM*
C#Cc1ccc([C@H]2C=C(C(=O)OCC=C)O[C@@H](OCC)[C@@H]2CCCO)cc1
→ nt	nt	2%	1%	nt	4%	nt	-22%
CN=C1S/C(=C\c2ccc(Sc3ccc(Cl)cc3)o2)C(=O)N1C
→ -7.7%	-2%	-2%	-24%	nt	nt	nt	nt
CN(C)c1ccc(/C=N/NC(=O)c2ccc(NC(=O)c3ccccc3)cc2)cc1
→ nt	nt	2%	2%	-17%	-20%	-9%[46.1 µM]	?
Cc1ccc(C(=O)N/C(=C\c2cn(C)c3ccccc23)C(=O)N2CCOCC2)cc1
→ nt	nt	14%	4%	nt	1%	nt	36%[activator]
O=C(COC(=O)c1ccncc1)c1ccc(Cl)c(Cl)c1
→ nt	nt	2%	0%	27%	0%	8%[46.1 µM]	-7%
CCC(C(=O)Nc1cccc(Cl)c1C)n1nc(C)c2sc3ccccc3c2c1=O (stereo not drawn)
→ -8.0%	-6%	nt	nt	6%[46.1 µM]	nt	-10%[46.1 µM]	-5%
O=C(Nc1nc(-c2cccnc2)cs1)c1ccccc1[N+](=O)[O-]
→ nt	nt	3%	3%	nt	7%	0%[46.1 µM]	-13%
CC1=C2C(CCS2(=O)=O)CC2(C1)C(=O)OC(C)(C)OC2=O (stereo not drawn)
→ 4.2%	-4%	3%	2%	?	10%	11%	2%
COc1ccccc1-c1cc(C(=O)N2CCN(S(=O)(=O)c3ccc(C)cc3)CC2)[nH]n1
→ nt	nt	18%	-2%	nt	-16%	nt	?
COc1ccc(CNC(=O)c2cc3c(=O)n(Cc4ccco4)ccc3nc2C)c(OC)c1
→ -2.7%	?	nt	nt	5%[46.1 µM]	nt	nt	-15%

Each structure is followed by: Cruzain Triton	Cruzain inh noDet	NS1 inh	SARS PLP yeast	LASV entry inh	RE007 growth inh	Marburg entry inh	2A StopGo
CCN(Cc1ccncc1)C(=O)c1cccc(S(=O)(=O)N2CCOCC2)c1
→ 5.4%	-4%	1%	15%	3%	10%	1%	-1%
COc1ccc(N2CCC(CNS(=O)(=O)c3cccc(C(F)(F)F)c3)C2)cc1 (stereo not drawn)
→ -4.6%	25µM*	?	-9%	-14%	-4%	4%&4%	5%
COc1ccc(NC2c3ccccc3C(=O)N2c2cccnc2)cc1 (stereo not drawn)
→ nt	nt	1%	2%	nt	3%	nt	-20%
C=CCN1C(=O)CN=C1Nc1cccc(C)c1
→ 1.3%	-3%	-1%	2%	9%	8%	12%	-6%
Cc1ccc(C(=O)Nc2sc3c(c2C(=O)NCc2ccco2)CCC(C(C)(C)C)C3)cc1 (stereo not drawn)
→ -1.2%	4%	nt	nt	1%[46.1 µM]	nt	8%[46.1 µM]	4%
COc1nc(Nc2ccc(OC)c(Cl)c2)nc(OC)n1
→ 0.9%	-2%	-6%	1%	-8%	-5%	0%	11%
CCCCCOc1ccc(NC(=O)Cn2c(-c3cncs3)nc3ccccc32)cc1
→ -2.1%	?	nt	nt	10%[46.1 µM]	nt	-8%[46.1 µM]	-8%
Cc1cc(Nc2ccc(Cl)cc2)n2nnnc2n1
→ -0.1%	-15%	11%	-5%	1%	14%	4%	-8%
O=C1CCCN1C(=O)CSc1nnnn1-c1cccc(F)c1
→ nt	nt	nt	-3%	0%	-3%	5%	5%
Cc1cc(=O)[nH]c(SCC(=O)N2CCC(Cc3ccccc3)CC2)n1
→ nt	nt	nt	5%	7%	1%	?	-12%
CS(=O)(=O)c1ccc(NC(=O)C2CC(=O)N(c3ccc4c(c3)OCCO4)C2)cc1 (stereo not drawn)
→ nt	nt	nt	0%	-20%	14%	-19%	-9%
O=C(NCC(c1cccnc1)N1CCc2ccccc21)c1cccc(F)c1 (stereo not drawn)
→ -9.7%	?	nt	nt	-11%[46.1 µM]	nt	nt	0%
COc1cccc(N(C(=O)Cc2cccs2)C(C(=O)NC2CCCC2)c2ccncc2)c1 (stereo not drawn)
→ nt	nt	-3%	0%	14%[46.1 µM]	1%	?	37%[activator]
Cc1ccc(OCCCC(=O)N2CCOCC2)cc1
→ -1.2%	-3%	-2%	-2%	16%	-9%	-17%	16%
C=CCN(C(=O)CCC(=O)O)C1CC(=O)N(c2ccc(OC)cc2)C1=O (stereo not drawn)
→ 5.5%	-8%	5%	3%	-3%	6%	-5%	-28%
CCOC(=O)c1cccc(NC(=O)CSc2ncc3c(n2)-c2ccc(Cl)cc2N(Cc2ccccc2)S3(=O)=O)c1
→ -3.7%	-27%	nt	nt	4%[46.1 µM]	nt	nt	-21%
O=C(CSCc1ccc([N+](=O)[O-])cc1)Nc1ccc(S(=O)(=O)N2CCCCCC2)cc1
→ -1.0%	-3%	12%	-6%	8%	-6%	-8%	-3%
